AID504770 – E. coli YBA685 growth inhibition, screen for V. cholerae RctB inhibitors; E. coli YBA685 rctB-dependent plasmid, OD600 growth, 3 h; active compounds read low; z-score (concentration not given with the values); 130,000 compounds, 0.27% hits;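 active = z-score under -2 on both plates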;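 note: wells of about 30 µL received 100 nL stock; score is relative to mean and SD of the test wells; the first replicate is given; strong numbers were not always called active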
CapD inh – blocks the Bacillus anthracis CapD enzyme. purified CapD enzyme, fluorescence intensity read-out; active compounds read low; some hits fall short of the stated cut. z-score (no concentration beside the values). 140,000 compounds, 0.23% hits. AID 492967;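 active = z-score under -4 in either of two replicates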;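 note: stock transfer was 100 nL into about 40 µL; score is relative to mean and spread of the plate; one replicate is shown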
Starred values were filed as active, the others as inactive; · = no result given.

SMILES | AID504770 | CapD inh
Cc1ccccc1-n1ccnc1SCC(=O)O | -0.25 | ·
CCOC(=O)c1c(N)sc2c1CN(C(=O)OC)N(C(=O)OC)C2 | 0.8 | ·
COc1cc(C2C(C(=O)OC(C)C)=C(C)NC3=C2C(=O)CC(c2ccccc2)C3)c([N+](=O)[O-])cc1OC (centres undefined) | · | -0.045
CC1CCC(NC(=O)CCN2C(=O)C3CC=CCC3C2=O)CC1 (centres undefined) | 0.45 | ·
COc1cccc(C2=NOC(C(=O)Nc3cccnc3)C2)c1 (centres undefined) | 0.3 | -0.045
Brc1cc(Br)c2nc(-c3ccccc3)c(-c3ccccc3)nc2c1 | · | -0.76
N/C(=N\S(=O)(=O)c1cc(Cl)c(Oc2ccc([N+](=O)[O-])cc2Cl)c(Cl)c1)c1ccncc1 | · | -0.13
CCOC(=O)N1CCN(C(=O)CN(c2ccccc2)S(=O)(=O)c2ccc(F)cc2)CC1 | 0 | -0.485
CCOC(=O)c1nnn(-c2nonc2N)c1CN1CCC(C)CC1 | · | 5.71
CCN(CC)S(=O)(=O)c1ccc2c(c1)c(=O)c(C(=O)NCc1cccs1)cn2C | 0.35 | 0.18
O=C1CCCc2oc3c(cc(NS(=O)(=O)c4ccc5ccccc5c4)c4ccccc43)c21 | · | 0.24
N#C/C(=C(/O)COc1ncnc2ccccc12)c1nc2ccccc2[nH]1 | -0.6 | ·
CCOC(=O)C1=Cc2sc3c(c2CS1)CCCC3 | 0.25 | 0.75
CC(C)(C)NS(=O)(=O)c1ccc(NC(=O)CN2C(=O)c3ccccc3C2=O)cc1 | -0.45 | ·
CC(C)(C#N)N1CCN(c2ccccc2)CC1 | -0.75 | -0.035
O=C(Nc1ccccc1)Nc1ccc(-c2nnc3n2CCCCC3)cc1 | 0 | ·
CCOc1ccc(NC(C)C(=O)NCc2ccc3c(c2)OCO3)cc1 (centres undefined) | 0.7 | ·
O=C(c1ccccc1)c1ccco1 | -0.4 | ·
CCN[C@H]1CN(CCCOC)S(=O)(=O)c2sc(S(N)(=O)=O)cc21 | · | -0.385
COc1ccc(-n2cnc3cc(C(=O)N4CCC5(CC4)OCCO5)ccc32)cc1 | -0.5 | -0.655
c1ccc(-c2ccnc3nc(-n4cccc4)nn23)nc1 | 0 | -0.16
CCC(=O)n1nc(NCc2ccc(F)cc2)nc1NCc1ccc(F)cc1 | -1 | -0.395
COc1ccc(CCNC2CCCCC2)cc1OC | -0.55 | ·
O=C1NC(=O)N(c2ccccc2)C(=O)/C1=C/C=C/c1ccco1 | -0.3 | -1.15
N#Cc1ccc(OC(=O)c2ccc(Cl)cc2)cc1 | 0.5 | -0.09
Following part
SMILES | AID504770 | CapD inh
COc1ccc(C(=O)O)cc1S(=O)(=O)N1CC(c2ccccc2)CC1=O (centres undefined) | 1.25 | -0.435
CCOC(=O)N1CCC(n2c(SCC(=O)Nc3ccc(OC)cc3OC)nc3ccsc3c2=O)CC1 | -1.05 | -0.8
Nc1ccccc1SCCS(=O)(=O)c1ccc(Cl)cc1 | · | -0.16
CN1C(=O)N(CCOc2ccc(Cl)cc2)C(=O)C1(C)C | 0.75 | ·
O=C(c1ccncc1)N1N=C(c2cccc([N+](=O)[O-])c2)CC1(O)C(F)(F)F (centres undefined) | · | -2.08
C=CCn1c(CCCNC(C)=O)nc2ccccc21 | -0.65 | 0.31
Cc1cc(C)nc(N/C(=N\S(=O)(=O)Cc2ccccc2)Nc2ccccc2Br)n1 | -0.1 | 0.17
C=CCNc1sc(C(=O)c2cccs2)c(N)c1C#N | 3.55 | ·
CCCc1cc(=O)[nH]c(/N=C(\N)Nc2cccc(C)c2)n1 | -0.3 | -0.52
O=C(NC1=NCCS1)C1CC=CCC1 (centres undefined) | 0 | ·
CC(C)OC(=O)c1cc2cc(Br)ccc2oc1=O | -0.6 | 8.98
CCNc1cc(Nc2ccc(C)cc2)c2c3c(onc13)-c1ccccc1C2=O | · | 0.1
CC(C)OC(=O)Cn1c(C(=O)OC(C)C)cc2c1ccn2-c1ccc(F)cc1 | -0.15 | ·
C=CCc1ccc(OCCOc2cccc(-c3nc4sc5c(c4c(=O)[nH]3)CCCC5)c2)c(OC)c1 | · | -0.225
O=C(NC(=O)c1ccccc1)OC1CCS(=O)(=O)C1 (centres undefined) | -0.45 | 0.355
CCN(CC)CCNS(=O)(=O)c1cccc2nonc12 | · | -0.215
COc1ccc(-c2cc(C(F)(F)F)n3ncc(C(=O)Nc4cccnc4Cl)c3n2)cc1OC | · | -1.24
Cc1ccc(S(=O)(=O)Nc2ccc(OCc3cc(=O)n4ccsc4n3)cc2)cc1 | 0.35 | 1.11
CCOC(=O)C1=C(O)/C(=C/c2ccccc2)SC1=Nc1cccc2ccccc12 | · | -0.435
N#CC(=Nc1ccc2c(c1)OCCO2)C1=C(O)c2ccccc2C1=O | 0.4 | 0.09
N#Cc1ccc(OCC(O)CN2CCC(O)CC2)cc1 (centres undefined) | 0.1 | ·
CC1CCCC(C)N1C(=O)COC(=O)C12CC3CC(CC(C3)C1)C2 (centres undefined) | -0.4 | 0.09
COc1ccc(N2C(=O)CC(N(Cc3ccc4c(c3)OCO4)C(=O)c3cccc(F)c3)C2=O)cc1 (centres undefined) | -0.4 | -1.11
CS(=O)(=O)N1CCc2ccccc2C1 | -0.6 | 0.465
Cc1ccnc(N2CCC(C(=O)O)CC2)n1 | 1.35 | 13.5

Full records, quoted from the list. Order of screens: AID504770, CapD inh
Cc1ccc(S(=O)(=O)Nc2ccc(OCc3cc(=O)n4ccsc4n3)cc2)cc1 is listed as 0.35, 1.11
CCN(CC)CCNS(=O)(=O)c1cccc2nonc12 is listed as ·, -0.215
C=CCc1ccc(OCCOc2cccc(-c3nc4sc5c(c4c(=O)[nH]3)CCCC5)c2)c(OC)c1 is listed as ·, -0.225
Cc1ccnc(N2CCC(C(=O)O)CC2)n1 is listed as 1.35, 13.5
CC(C)OC(=O)Cn1c(C(=O)OC(C)C)cc2c1ccn2-c1ccc(F)cc1 is listed as -0.15, ·

Continued.
SMILES | AID504770 | CapD inh
Cc1cccc(Cn2cc(C(=O)c3ccc(C)c(C)c3)c(=O)c3cc4c(cc32)OCO4)c1 | -0.3 | 0.875
c1ccc2c(N3CCOCC3)c3c(nc2c1)CCC3 | 0.15 | -1.84
COc1cccc(-n2c(=S)sc3c2nc(SCC(=O)N2CCCC2)n2c4ccccc4nc32)c1 | · | 11.7
CCOC(=O)N1CCC(N(CCOC)C(=S)Nc2ccccc2F)CC1 | 0.15 | 0.415
COc1ccc(C(=O)Nc2nc3c(C)cccc3s2)cc1OC | -0.5 | 19.7
Cc1c(C(=O)CC#N)sc2ccc(Cl)cc12 | 1.65 | -0.07
Cc1ccc(S(=O)(=O)CC2CSc3nnc(C)c(=O)n32)cc1 (centres undefined) | 1.65 | 0.625
Cc1ccc(NC(=O)CC(NC(C)C)C(=O)O)cc1 (centres undefined) | -0.1 | 0.165
COc1ccc(OC(=O)C2CC(=O)N(c3ccc(C)cc3)C2)cc1 (centres undefined) | -0.85 | ·
CNC(=O)Nc1ccccc1NC1=C(C(=O)OC)CSC1 | -2.2* | 2.37
NC(=O)COC(=O)c1n[nH]c2ccccc12 | -3.5* | ·
NC(=O)Cn1c(CCCCc2nc3ccccc3n2CC(N)=O)nc2ccccc21 | 0.05 | -0.5
Cc1nccn1-c1ccc(C(F)(F)F)cc1NC=O | 0.3 | ·
COc1cc(/C=C2\N=C(c3ccc([N+](=O)[O-])cc3Cl)OC2=O)cc(Br)c1OC(C)=O | · | -0.115
COc1cccc(C(=O)NCc2cccnc2)c1 | -0.95 | -0.145
Cc1sc(NC(=O)Cn2nc(C(F)(F)F)cc2C)c(C(N)=O)c1C | 0.05 | 8.5
Oc1ccc(/C=N/N2CCN(Cc3cccc4ccccc34)CC2)cc1O | -0.8 | ·
N#CCSc1nnc2n(-c3ccccc3)c(=O)c3ccccc3n12 | -0.4 | ·
CC1(CSc2ccccc2C(=O)Nc2nc3ccccc3[nH]2)NC(=O)NC1=O (centres undefined) | 0.05 | ·
O=C(CSc1nnc(Cc2ccccc2)o1)C12CC3CC(CC(C3)C1)C2 | 0.3 | ·
CCS(=O)(=O)c1cccc(C(=O)Nc2nnc(-c3ccc4c(c3)OCCO4)o2)c1 | 1.6 | ·
CCn1cc(C(=O)OC)c(=O)c2ccc(C)nc21 | 0.05 | -2.11
O=C(CCN1CCN2CCCCC2C1)N1c2ccccc2Sc2ccc(C(F)(F)F)cc21 (centres undefined) | · | -0.345
O=C(O)c1ccc(CNCc2cccc(Oc3ccccc3)c2)cc1 | -0.5 | 10
Nc1nc(NCc2c(Cl)cccc2Oc2ccccc2)n[nH]1 | -1.95 | -0.635

Shown with values under each structure: 2 of the compounds above.
Below each SMILES: AID504770, CapD inh
- COc1ccc(C(=O)Nc2nc3c(C)cccc3s2)cc1OC
→ -0.5, 19.7
- COc1ccc(OC(=O)C2CC(=O)N(c3ccc(C)cc3)C2)cc1 (centres undefined)
→ -0.85, ·

The list goes on.
SMILES | AID504770 | CapD inh
O=C(Cc1ccccc1)Nc1ccncc1 | -0.75 | ·
CCc1sc2sncc2c1Br | -0.35 | -0.06
N#C/C(=N\O)C(=O)c1ccco1 | -1.3 | -4.63*
CN(CCCN)Cc1ccccc1 | -0.15 | ·
O=C(Cc1ccccc1)c1ccccc1C(=O)NCc1ccc(F)cc1 | 0.7 | 0.595
O=C(Nc1nccs1)c1ccncc1 | · | -0.505
O=C(c1ccc(F)cc1)C1CCNCC1 | · | 0.155
CC(C)(C)C(=O)NS(=O)(=O)c1ccccc1 | -0.6 | 0.63
C/C(Cl)=C/CN1CCOCC1 | 1.8 | 0.06
Cc1ccc(Sc2ccc(NC(=O)c3cccnc3Cl)cc2)cc1 | · | -0.235
COc1ccc2ncc(OC(C)=O)cc2c1 | 0.75 | 33.3
CC(=O)Nc1cccc(N=Cc2cc(I)cc(C)c2O)c1 | -1.2 | 0.11
Cc1c(NC(=S)N2c3ccccc3CC2C)c(=O)n(-c2ccccc2)n1C (centres undefined) | 1.05 | ·
COCC(C)N=CC1=C(O)CC(C)(C)CC1=O (centres undefined) | -0.4 | 0.255
CNC(=O)c1c2c(nc3ccc(Br)cc13)CCCC2 | -0.25 | 0.25
O=C(c1ccccc1)N1CCn2c1nc1ccccc12 | -0.85 | -0.385
COc1ccc(NC(=O)Cc2nc(-c3ccc(OC)cc3)no2)cc1 | 0.05 | -0.425
C/[N+]([O-])=C\c1cccnc1 | 0.25 | ·
CN(Cc1nc(-c2ccccc2)no1)C(=O)CSc1ccccc1 | -0.3 | 0.69
CN(C)c1ccc(C2CC(c3ccc(Br)cc3)=NN2C(=O)CCCC(=O)O)cc1 (centres undefined) | · | 0.515
OC(CNCc1csc2ccccc12)c1ccccc1 (centres undefined) | -1.35 | -0.625
O=C(COC(=O)c1cccs1)Nc1ccccc1C(F)(F)F | 0.8 | -0.495
Cc1ccc2c(c1)-c1c(sn(-c3ccc(C)c(C)c3)c1=S)C(C)(C)N2Cc1ccccc1 | · | -0.475
O=C(NCC1CCCO1)C1c2ccccc2C(=O)N1CCc1ccccc1 (centres undefined) | -0.45 | -0.005
COc1cc(C=Nc2c(C)n(C)n(-c3ccccc3)c2=O)ccc1OCc1ccccc1 | · | 0.57

Compounds above with a nitro group on carbon:
SMILES | AID504770 | CapD inh
COc1cc(C2C(C(=O)OC(C)C)=C(C)NC3=C2C(=O)CC(c2ccccc2)C3)c([N+](=O)[O-])cc1OC (centres undefined) | · | -0.045
N/C(=N\S(=O)(=O)c1cc(Cl)c(Oc2ccc([N+](=O)[O-])cc2Cl)c(Cl)c1)c1ccncc1 | · | -0.13
O=C(c1ccncc1)N1N=C(c2cccc([N+](=O)[O-])c2)CC1(O)C(F)(F)F (centres undefined) | · | -2.08
COc1cc(/C=C2\N=C(c3ccc([N+](=O)[O-])cc3Cl)OC2=O)cc(Br)c1OC(C)=O | · | -0.115

Further compounds follow:
SMILES | AID504770 | CapD inh
CCN(C(=O)c1ccc2c(=O)n3c(nc2c1)CCCCC3)c1cc(OC)ccc1OC | -0.6 | -1.23
O=C(NCC1CCCO1)c1ccc2c(=O)n3c(nc2c1)CCCCC3 (centres undefined) | -0.25 | 0.195
Nn1cnn2c(SCC(=O)Nc3nnc(SCC(=O)Nc4ccc(S(N)(=O)=O)cc4)s3)nnc12 | · | 0.45
CC(CNC(=O)c1cc(C2CC2)[nH]n1)c1ccccc1 (centres undefined) | 0.8 | -0.26
O=C(Cc1ccccc1)c1c[nH]c(C(=O)NC2CCCC2)c1 | 2.2 | 0.18
COc1cccc2cc(-c3csc(NC(=O)CCC(=O)NCCCN4CCC(C)CC4)n3)c(=O)oc12 | · | 1.54
O=S(=O)(c1ccccc1Cl)N1CCN(CCCC(c2ccc(F)cc2)c2ccc(F)cc2)CC1 | · | 0.65
O=C(CS(=O)(=O)Cc1ccc(Cl)cc1)Nc1cccc(C(F)(F)F)c1 | · | 0.36
c1ccc2c(c1)CCN2Cc1csc2c1CCCC2 | 1 | 0.185
Cn1c2ccccc2c2nnc(SCCC(=O)N3CCCC3)nc21 | -1.85 | -0.23
S=C(Nc1ccccc1)N1CCCCC1 | -0.1 | 0.135
COc1ccc(OC)c(/C(N)=N/O)c1 | · | 0.075
CC[n+]1ccc(/C=C2\Sc3ccccc3N2CCCS(=O)(=O)[O-])cc1 | · | -1.02
COc1ccc(/C=C(/C#N)S(=O)(=O)C2CCCCC2)cc1 | -0.45 | ·
Cc1c(CO)cnn1-c1ccc(F)cc1 | -0.55 | -0.065
CC(C)(C)n1nc2c(c1NC(=O)Nc1ccccc1)CSC2 | -0.6 | ·
Cc1nn(-c2ccccc2)c(C)c1CN1CCC(NC(=O)OCCCCc2ccccc2)C1 (centres undefined) | · | -0.54
CCOc1ccc2nc(/N=C/c3nc(-c4cccc5ccccc45)oc3O)sc2c1 | · | -1.72
CC(C)NC(=O)N(Cc1cccnc1)Cc1cccc(Cl)c1Cl | · | 0.22
Cc1c(CCN)sc2nc(-c3ccc(Cl)cc3)nn12 | 0.25 | ·
O=C(Nc1ccccc1C(=O)Nc1cccnc1)c1ccccc1 | -0.45 | 0.72
Cc1ccc(C(=O)NC2CS(=O)(=O)CC2NC(=O)c2ccc(C)c(Cl)c2)cc1Cl (centres undefined) | 1.4 | -0.095
CC(Oc1ccc(C#N)cc1)C(=O)N1CC=C(c2ccccc2)CC1 (centres undefined) | 0.25 | ·
